# Screens from PubChem BioAssay.
# gsp antagonist – qHTS for Antagonists of gsp, the Etiologic Mutation Responsible for Fibrous Dysplasia/McCune-Albright Syndrome: qHTS. Potency, µM (series often up to 76.9 µM), for the others: at the highest dose activity change, negative = inhibition, most hits filed as inhibitors. 0.4% of 340,000 active. gsp-mutant cells, cAMP HTRF, 30 min; control for the full effect not named in the record; active = falling curve of any shape with a large fitted effect; inconclusive = falling curve, mostly with a smaller effect; inactive = flat or rising curve; cell line not stated here;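 further: intracellular cAMP measured with PDE inhibitor Ro 20-1724 present during compound exposure; potency means the concentration at half of the fitted maximal effect; on the % scale 0 is the no-effect control and ±100 the full control effect; nearly all actives have a fitted effect of over 65% in size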
#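 HTRF cAMP measurement after 30 min RT detection following 30 min, 37C compound treatment alongside […] (added as 300 uM solution) in G418-selected cells seeded at 2000/well and grown 16–24 h.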
# TRPML1 inh – qHTS for Inhibitors of the Human Mucolipin Transient Receptor Potential 1 (TRPML1); activity change, negative = inhibition, % (test concentration not listed); TRPML1-inducible cells, Ca2+ dye fluorescence, FDSS; active compounds read low; inhibition of EC80 agonist-evoked calcium signal; AID 624415, 2012; 0.02% of 390,000 active; in the data active means activity change below about -50%; inconclusive means about -30% to -50%; inactive means above about -30%;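 further: stimulus is agonist 54-4 at its EC80 concentration; on the % scale 0 is the no-effect control and ±100 the full control effect; compound concentration not given in the record; the text of the record puts the active cut at -80%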
# Target sequence (Q9GZU1 whole entry, looked up): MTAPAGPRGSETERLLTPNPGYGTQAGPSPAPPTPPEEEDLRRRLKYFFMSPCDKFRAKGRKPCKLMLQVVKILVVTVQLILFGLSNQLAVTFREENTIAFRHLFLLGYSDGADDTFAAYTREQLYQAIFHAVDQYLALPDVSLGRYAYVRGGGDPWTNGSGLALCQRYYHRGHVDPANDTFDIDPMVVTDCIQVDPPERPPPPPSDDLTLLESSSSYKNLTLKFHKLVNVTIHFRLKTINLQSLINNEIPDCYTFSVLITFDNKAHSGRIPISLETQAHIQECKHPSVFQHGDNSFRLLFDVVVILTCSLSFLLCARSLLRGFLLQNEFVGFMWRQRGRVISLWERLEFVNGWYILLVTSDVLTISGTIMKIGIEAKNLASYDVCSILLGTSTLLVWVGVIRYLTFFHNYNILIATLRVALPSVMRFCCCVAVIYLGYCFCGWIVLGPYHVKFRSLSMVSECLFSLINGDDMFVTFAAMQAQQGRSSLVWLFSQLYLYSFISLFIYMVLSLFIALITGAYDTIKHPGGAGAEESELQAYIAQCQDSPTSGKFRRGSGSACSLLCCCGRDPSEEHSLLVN
#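 Calcium fluorescence in TRPML1-DL cells induced overnight with Tet: a 110 s read after compound pin addition, then a 110 s antagonist read after challenge with 54-4 at 4 uM final (EC80).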
# Menin-MLL FL inh – qHTS Assay for Inhibitors Targeting the Menin-MLL Interaction in MLL Related Leukemias: Competition With Fluorescein Labeled MLL-derived Peptide. FP activity change, % at 61.4 µM. Fluorescence polarization, fluorescein-MLL peptide displacement from menin. 290,000 tested, under 10 active; inconclusive = falling polarisation curve, or a change in total fluorescence; inactive = total fluorescence flat and polarisation flat or rising; no compound was filed as active; the % refers to the polarisation; negative = inhibition;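 further: % of control where 0% means no effect; inhibitors lower the polarisation; unlabelled MLL peptide was the positive control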
# ClpP mod – qHTS Assay for Activators of ClpP. ATP-dependent Clp protease proteolytic subunit (Bacillus subtilis (strain 168)), P80244. purified B. subtilis ClpP, FRET peptide cleavage, 20 min. Potency, µM (series often up to 57.5 µM), for the others: at the highest dose activity change, negative = active. 1.9% of 340,000 active. AID 651965, 2013; active = well fitted falling curve with a large enough effect; inconclusive = small, poorly fitted or top-dose-only effect; inactive = no such curve, though single readings can be large or run the other way; further: potency means the concentration at half of the fitted maximal effect; the source files actives as falling curves though it sought activators and does not explain the sign; nearly all actives have a fitted effect of over 65% in size; many hits overshoot -100%
# Target sequence (P80244 whole entry, looked up): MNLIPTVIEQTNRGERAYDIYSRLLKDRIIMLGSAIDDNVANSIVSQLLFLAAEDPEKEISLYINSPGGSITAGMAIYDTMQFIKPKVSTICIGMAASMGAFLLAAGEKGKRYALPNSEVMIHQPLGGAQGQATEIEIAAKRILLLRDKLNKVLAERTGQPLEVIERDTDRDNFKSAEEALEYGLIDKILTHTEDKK
#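 Purified B. subtilis ClpP, 10 microg/mL final in Tris/HCl pH8 with KCl, BSA, glycerol and Tween-20, cleaved an Abz/nitrotyrosine-quenched decapeptide. Fluorescence (ex 320, em 430) was read at 0 and 20 min at room temperature. Delta was normalized to 5.8 microM ADEP and DMSO/no-enzyme controls.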
# TRPML1 agonist – qHTS for Agonists of the Human Mucolipin Transient Receptor Potential 1 (TRPML1). Mucolipin-1 (Homo sapiens), Q9GZU1. TRPML1-expressing cells, Ca2+ dye fluorescence, FDSS; host cell line not named in the record; reference of the full effect not given here. activation, % (concentration not given with the values). 0.12% of 410,000 active. AID 624414, 2012; in the data active = activation above about 50%; inconclusive = about 30% to 50%; inactive = below about 30%; further: 0% is about no effect; the text of the record puts the active cut at 80%
#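 Agonist activity was taken from a 110 s kinetic Ca2+ dye read on the FDSS after pinning compounds onto TRPML1-DL cells. The cells were seeded at 1,500/well with Tet inducer, incubated about 16 h, then dye-loaded at room temperature.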
# gsp ag – qHTS for Agonist of gsp, the Etiologic Mutation Responsible for Fibrous Dysplasia/McCune-Albright Syndrome: qHTS. Potency, µM (doses to about 76.9 µM), without a hit: at the highest dose activation (cAMP increase), hits mostly activators. gsp mutant cells, cAMP HTRF, 30 min; control for the full effect not named in the record. 0.13% of 340,000 active. AID 624287, 2012; active = well fitted activation curve with a large enough effect; inconclusive = small, poorly fitted or top-dose-only effect, or another doubt; inactive = no such curve, though single readings can be large or run the other way; cell line not stated here;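 further: phosphodiesterase inhibitor Ro 20-1724 added with compounds to block cAMP breakdown; potency means the concentration at half of the fitted maximal effect; nearly all actives have a fitted effect of over 60% in size; about a fifth of the inactives were tested at one dose only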
#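 Cells in DMEM/10% FBS with G418 were pretreated with compounds in DMSO plus […] (300 uM stock) for 30 min at 37C. cAMP was measured by HTRF (cAMP-d2 plus anti-cAMP antibody-K) after 30 min at room temperature.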
# An asterisk follows results filed as active; ? = inconclusive; . = no result given; & = joins results of further samples; [ ] = another dose, or the depositor's remark.
compound	gsp antagonist	TRPML1 inh	Menin-MLL FL inh	ClpP mod	TRPML1 agonist	gsp ag
O=C(CSc1nc2ccsc2c(=O)n1CC1CCC(C(=O)O)CC1)c1ccc(Cl)cc1 (configuration not stated)	22µM*	-7	5.6	-0.4%	0.6	5%[15.4 µM]
COc1ccc(C(C(=O)NC2CCCCC2)N(Cc2cccnc2)C(=O)c2snc(C(N)=O)c2N)cc1 (configuration not stated)	-1%	-8	-2.2	.	-0.5	-22%
CC1CCN(S(=O)(=O)c2ccc(S(=O)(=O)N3CCC4(CC3)OCCO4)cc2)CC1	5%	14	3.1	1.7%	-0.6	-16%
Cc1nn(CC(=O)NCc2ccccc2)c(C)c1[N+](=O)[O-]	1%	15	-0.1	-0.1%	-0.8	-40%
CCOC(=O)C1=C(c2ccccc2)N(C)C(=O)NC1c1ccc(O)c(OC)c1 (configuration not stated)	-16%	-12	2.2	-0.3%	-0.2	24%
CCOc1ccc(NC(=O)c2ccc3c(c2)nnn3C2CCCC2)cc1	.	44	.	2.3%	-0.5	.
CCCCOc1ccc(-c2nc(=S)[nH][nH]2)cc1	-3%	-24	7.0	-0.2%	0.8	-55%
C=CCNC(=O)c1snnc1-c1ccccc1	2%	-12	0.0	-1.8%	-0.4	-32%[inhibitor]
COc1cc(OC)cc(-c2sc3ccc(OC)cc3c2-c2ccc(O)cc2)c1	-9%	15	.	?	1.1	18%
Nn1c(COc2ccc(Cl)cc2)nc2ccccc2c1=O	2%	-18	8.2	-2.3%	0.6	4%[15.4 µM]
Clc1cccc(-c2nc3ccc(Br)cn3c2Cc2ccccc2)c1	.	15	.	-3.2%	3.1	.
O=C(CNC(=O)c1ccccc1Br)Nc1cccc(S(=O)(=O)Nc2ccccc2Cl)c1	-18%	6	.	2.4%	0.5	15%
CCOC(=O)c1cc(OC(=O)c2cc(Cl)ccc2OC)n(-c2ccccc2)n1	.	-1	.	-6.9%	2.1	.
COc1ccccc1N1CCN(CCN2C(=O)CC3(CCCC3)CC2=O)CC1	5%	4	?	-0.3%&-0.2%	-0.5&-0.7	.
COc1ccc(S(=O)(=O)N2CCC(C(=O)N[C@@H](C)C(=O)NCc3ccc(F)cc3)CC2)cc1	0%	-6	.	-0.6%	0.6	-28%
COc1ccc(S(=O)(=O)N(CC(=O)N2CCOCC2)Cc2ccccc2)cc1	1%	-16	5.5	0.1%	0.3	1%
COc1cc(C2CC(=O)Oc3c(C(CCN4CCOCC4)c4ccc(N(C)C)cc4)c(OC)cc(OC)c32)cc(OC)c1OC (configuration not stated)	7%	28&-10	0.0&5.4	-1.6%	0.8&-0.8	.
CC(=O)c1sc(NC(=O)C2CC(=O)N(Cc3ccccc3)C2)nc1-c1ccccc1 (configuration not stated)	-7%	9	.	-1.0%	1.7	-12%
COc1ccc(C2C(Oc3ccccc3)C(=O)N2c2cc(C)ccc2C)cc1OC (configuration not stated)	-4%	15	-0.8	-0.5%	0.8	-20%
Cc1ccc(-n2nc3c(c2NC(=O)c2ccco2)CS(=O)(=O)C3)c(C)c1	-15%	9	-0.3	0.3%	0.0	?
Cc1cccc(C(C)C)c1NC(=O)c1ccc(COc2ccc3c(C)cc(=O)oc3c2)cc1	-7%	14	8.2	.	-0.2	0%[15.4 µM]
Cc1ccccc1CN1CCN(Cc2cc(=O)c3ccccc3[nH]2)CC1CCO (configuration not stated)	-2%	1	-4.1	-4.4%	-0.7	4%
O=C(NNC(=S)NC(=O)c1ccc(F)cc1)c1cccnc1	-1%	4	-0.5	.	2.3	-20%
CCOC(=O)C1CCN(C(=O)c2cc(S(=O)(=O)N3CCCCC3)ccc2C)CC1	-23%	0	6.3	-4.8%	0.1	-20%
CCCc1cc(=O)oc2cc(OCc3ccc(C(=O)O)o3)ccc12	-2%	18	-9.7	-3.2%	0.0	12%[15.4 µM]
Cc1cc(C(=O)OCC(=O)NC(C)c2ccccc2)c(C)o1 (configuration not stated)	6%	-4	-1.1	-2.2%	-0.2	-24%
COc1ccccc1NS(=O)(=O)c1cccc(N2CC(O)=C(c3ccccc3)C2=N)c1	?	2	6.6	.	2.0	6%[15.4 µM]
CCOc1ccc(-c2cn(-c3ccccc3OC)c(=S)[nH]2)cc1	5%	27	20	.	0.2	-42%[inhibitor]
COc1ccc(C(=O)N2CCN(c3ncnc4c(-c5ccccc5)nsc34)CC2)cc1	5%	11	2.8	-3.5%	-0.3	0%
NS(=O)(=O)c1cc(C(=O)O)cc(N2CCCC2)c1Oc1ccccc1	-2%	12	-6.5[24.8 µM]	4.3%	0.2	.

# Other records
compound	gsp antagonist	TRPML1 inh	Menin-MLL FL inh	ClpP mod	TRPML1 agonist	gsp ag
Cc1nnc(Sc2cc(NCCCO)c([N+](=O)[O-])c3nonc23)s1	-25%	17	-4.5	.	0.2	-1%[15.4 µM]
Cc1cccc(OCCn2c(=O)sc3ccccc32)c1	-10%	-4	0.7	3.5%	3.0	-13%
CN(c1ccccc1)S(=O)(=O)c1cccc(C(=O)NCC(c2cccs2)N2CCOCC2)c1 (configuration not stated)	.	1	.	-4.0%	-0.9	-37%[inhibitor]
CCOc1ccc(S(=O)(=O)N2CCC(C(=O)N3CCN(c4ccccc4)CC3)CC2)cc1	-12%	8	.	-1.1%	-0.3	-1%[15.4 µM]
COC(=O)CCCC1=CC2=CC(=O)C(C)(OC(=O)c3cccs3)C(=O)C2=CN1C1CCCCC1 (configuration not stated)	-4%	14	?	-2.2%	0.7	-41%[inhibitor]
CCOc1ccc(/C(O)=C2/C(=O)C(=O)N(c3nc(C)c(C)s3)C2c2ccco2)cc1 (configuration not stated)	-2%	5	6.0	1.4%	-1.7	?
CCOC(=O)C1=C(CSc2nc(C)cc(C)c2C#N)OC(N)=C(C#N)C1c1cccs1 (configuration not stated)	?	-5	?	3.8%	0.5	-21%
FC(F)(F)C(Oc1nc(Nc2ccc(Cl)cc2)nc(N2CCOCC2)n1)C(F)(F)F	-7%	-9	-4.5	?	-0.4	4%
CCCC(=O)Nc1nc2ccc3nc(C)sc3c2s1	12%	-5	-2.2	-27%	-1.3	0%
Cc1ccccc1S(=O)(=O)Cc1ccc(C(=O)N2CCN(C3CCCCC3)CC2)o1	-1%	21	2.9	-1.8%	0.2	18%
COc1ccc(C2OC(=O)CC2C(=O)NCc2ccc(Cl)cc2)cc1OC (configuration not stated)	2%	7	-2.0	.	-0.3	22%
Cc1cccc(C(C(=O)NC2CCCCC2)N(C(=O)c2csnn2)C2CC2)c1 (configuration not stated)	8%	-1	1.3	.	0.6	-11%
CCN(CC(=O)NC1CCS(=O)(=O)C1)S(=O)(=O)c1ccc2ccccc2c1 (configuration not stated)	3%	12	2.0	25µM*	-0.5	0%
CCOC(=O)C1CCN(S(=O)(=O)c2ccc(NC(=O)c3ccco3)cc2)CC1	-25%	8	-0.3	1.3%	-0.3	-44%[inhibitor]
CCN(CC)C(=O)CSc1nc2ccccc2c(=O)n1CC1CCCCC1	-19%	75	-1.5	1.9%	1.6	-7%
CCN1C(=O)N(S(=O)(=O)c2ccc(C)cc2)[C@@H](c2ccccc2)C(C(=O)OC)=C1C	-11%	8	-0.6[11.7 µM]	-0.4%	4.0	.
Cc1cc(C)cc(OCC(=O)Nc2ccc3c4c(cccc24)CC3)c1	-3%	-7	-1.3	-0.8%	0.5	0%
O=C(O)c1ccc(NS(=O)(=O)c2ccc(Cl)c(C(=O)Nc3ccccc3)c2)cc1	-5%	-2	-19	-1.0%&-0.2%	-0.6	0%
CCOc1ccc2[nH]c(=O)c(C(c3nnnn3Cc3ccco3)N3CCN(C)CC3)cc2c1 (configuration not stated)	8%	-11	0.7	.	-0.5	3%[15.4 µM]
O=C(Cn1cc(S(=O)(=O)c2ccccc2)c(=O)c2cc3c(cc21)OCO3)Nc1ccccc1	.	-4	.	-10%	-0.1	.
OC(CNCCc1ccc(Cl)cc1)COCc1ccco1 (configuration not stated)	-1%	-10	1.7	-13%	-0.2	11%
COc1ccccc1NC(=O)c1c(C)cc(C)nc1SCC(=O)Nc1ccc(C)cc1	.	-15	.	0.3%	1.4	.
CC(C)c1ccc(CN(C(=O)c2ccco2)C2CCS(=O)(=O)C2)cc1 (configuration not stated)	-31%	17	1.5	-0.3%	-1.4	34%[15.4 µM]
OC(c1ccc(Cl)cc1)c1ncc(-c2cccc(F)c2)[nH]1 (configuration not stated)	.	29	.	-1.0%	0.1	.
COc1ccc(OCC(O)CNC(=O)Nc2cc(C)cc(C)c2)cc1 (configuration not stated)	-6%	10	-0.6	-0.2%	-1.0	-13%
COc1ccccc1Cn1c(=S)[nH]c2cc(C(=O)N3CCN(C)CC3)ccc2c1=O	3%	-3	5.1	-0.7%	0.5	?
COc1ccc(C(=O)Oc2ccc(C(c3c(C)[nH][nH]c3=O)c3c(C)[nH][nH]c3=O)cc2)cc1	.	11	.	0.2%	-0.4	.
CNc1c([N+](=O)[O-])cnn1-c1ccc(C)cc1	13%	3	-0.7	0.6%	-1.3	?
COc1ccc(CNC(=O)COc2ccc(C)nc2[N+](=O)[O-])cc1	-3%	-24	-2.0	.	-0.2	3%[15.4 µM]
Cc1ccc(/C=C/C(=O)NCCCn2ccnc2)cc1	1%	7	-1.3	.	2.1	17%[15.4 µM]

# (more compounds)
compound	gsp antagonist	TRPML1 inh	Menin-MLL FL inh	ClpP mod	TRPML1 agonist	gsp ag
CCCNC(=O)c1cc(-c2ccc(Br)cc2)on1	11%	19	1.9	-0.5%	-0.3	8%
COC1=CC(=O)OC(C)(c2ccccc2)C1 (configuration not stated)	0%	19	.	.	-0.1	?
CCn1cc(C(=O)NC(=S)Nc2ccccc2Br)cn1	-11%	17	-1.7	0.6%	0.9	4%
Nc1nc2n(n1)C(=O)CC(c1ccccc1)N2 (configuration not stated)	5%	-12	-4.6	0.6%	0.5	-29%
COc1ccccc1CNC(=O)Cc1ccccc1	8%	4	-0.7	-1.2%	-0.1	1%[15.4 µM]

# Just TRPML1 agonist, for some of the entries so far:
Compound	TRPML1 agonist
COc1ccccc1NS(=O)(=O)c1cccc(N2CC(O)=C(c3ccccc3)C2=N)c1	2.0
CCOc1ccc(-c2cn(-c3ccccc3OC)c(=S)[nH]2)cc1	0.2
